High-throughput results as filed in PubChem.
A488 autofl: compound fluoresces in the A488 spectral region. compound autofluorescence, A488 spectral region, dye equivalency; stronger effect = higher value. max dye equivalency, M. actives 0.1% (n = 59,000). AID 591; active = above 10 nM dye equivalent; inconclusive = 1 to 10 nM; inactive = 1 nM or less; about half of its hits are not listed in these tables;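 further: highest value over a series up to 38 µM; compound alone in buffer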
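Compounds pin-transferred into 100 mM Tris buffer, pH 8.0, incubated 15 min at room temperature, then imaged with 480 nm excitation/540 nm emission filters. Fluorescence converted to Alexa 488 dye-equivalent concentration via an on-plate six-point A488 standard curve.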
TSHR agonist: activates the human thyroid stimulating hormone receptor. P16473. HEK293-CNG-TSHR cells (CNG channel as cAMP sensor), membrane potential dye, cAMP. Potency, µM (series often up to 57.1 µM), without a hit: top-dose activation, actives largely listed as activators. actives 0.48% (n = 73,000). AID 926; active = well fitted activation curve of enough size with the parental cells flat; inconclusive = any curve in the parental cells; inactive = parental cells flat and receptor cells flat or falling; further: potency means the concentration at half of the fitted maximal effect; % of control where 0% means no effect; weak receptor curves with flat parental cells got no call and are not listed
Target sequence (P16473 whole entry, looked up): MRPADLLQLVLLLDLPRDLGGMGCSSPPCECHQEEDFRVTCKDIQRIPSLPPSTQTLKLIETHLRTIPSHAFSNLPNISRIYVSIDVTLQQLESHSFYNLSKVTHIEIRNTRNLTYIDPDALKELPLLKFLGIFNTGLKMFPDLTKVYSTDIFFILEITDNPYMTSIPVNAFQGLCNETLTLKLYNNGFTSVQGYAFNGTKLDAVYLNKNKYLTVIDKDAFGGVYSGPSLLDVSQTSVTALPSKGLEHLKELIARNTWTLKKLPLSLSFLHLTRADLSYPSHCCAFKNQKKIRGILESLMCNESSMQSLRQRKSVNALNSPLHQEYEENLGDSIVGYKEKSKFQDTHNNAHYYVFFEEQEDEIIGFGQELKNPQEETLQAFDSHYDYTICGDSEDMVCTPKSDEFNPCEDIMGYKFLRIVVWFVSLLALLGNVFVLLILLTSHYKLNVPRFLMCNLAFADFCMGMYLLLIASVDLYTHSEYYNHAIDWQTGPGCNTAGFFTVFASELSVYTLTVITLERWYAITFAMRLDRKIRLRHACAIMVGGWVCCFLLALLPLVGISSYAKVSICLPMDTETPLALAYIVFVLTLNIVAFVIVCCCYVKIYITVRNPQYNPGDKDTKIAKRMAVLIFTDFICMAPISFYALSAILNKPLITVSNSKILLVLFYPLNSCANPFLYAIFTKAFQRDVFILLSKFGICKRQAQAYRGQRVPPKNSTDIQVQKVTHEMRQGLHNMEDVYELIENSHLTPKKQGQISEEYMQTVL
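HEK 293 cells stably expressing TSHR and a cAMP-gated CNG channel; parental CNG-only cells as counterscreen. Cells preloaded 60 min with membrane potential dye plus 100 uM RO 20-1724, then compound 30 min; fluorescence read at 590 nm.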
A647 autofl: compound fluoresces in the A647 spectral region; 59,000 tested, under 10 active; max dye-equivalent concentration, M; AID 592; Compound fluorescence, A647 channel (570/671 nm), Tris buffer; active means above 1 µM dye equivalent; inconclusive means 0.1 to 1 µM; inactive means 0.1 µM or less;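 further: values scaled relative to a standard on each plate; highest value over a series up to 38 µM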
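Compound fluorescence was measured in 100 mM Tris buffer, pH 8.0, after 15 min at room temperature, using 570 nm excitation and 671 nm emission filters. Signal was normalized to a per-plate Alexa 647 standard curve and expressed as dye-equivalent concentration at each compound concentration.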
Resorufin fluor: compound fluoresces in the resorufin spectral region; Compound fluorescence, resorufin region 547/598 nm, buffer; stronger effect = higher value; max dye-equivalent concentration, M; actives 0.04% (n = 59,000); AID 588; active = above 10 nM dye equivalent; inconclusive = 1 to 10 nM; inactive = 1 nM or less; a few of its hits are not listed in these tables; further: highest value over a series up to 38 µM
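Compounds in 100 mM Tris buffer, pH 8.0, incubated 15 min at room temperature, then read with 547 nm excitation and 598 nm emission filters. Fluorescence was converted to dye-equivalent concentration using an on-plate six-point resorufin standard curve.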
AID923: qHTS Assay for Allosteric/Competitive Inhibitors of Caspase-1: Spectroscopic Profiling in AFC Spectral Region. Potency, µM (series often up to 57.5 µM), for the others: at the top dose fluorescence increase, hits mostly activators. AID 923, 2007. compound fluorescence, AFC spectral region (405/520 nm); almost no hit is shown here. actives 1.1% (n = 75,000); active means well fitted activation curve with a large enough effect; inconclusive means small, poorly fitted or top-dose-only effect;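 further: potency means the concentration at half of the fitted maximal effect; 0% is about no effect; scaled to a free AFC standard on each plate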
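Compound autofluorescence profiled at 405 nm ex/520 nm em during kinetic caspase 1 run (50 nM enzyme, 5 uM Ac-WEHD-AFC, HEPES pH 7.5, 10 mM DTT). Titration up to 57 uM; baseline from regression intercept, normalized to AFC standard curve.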
Active calls of the source: *; i = inactive; ? = inconclusive; . = no result given; & = joins results of further samples; [ ] = dose if it differs, or a comment.

SMILES	A488 autofl	TSHR agonist	A647 autofl	Resorufin fluor	AID923
COc1ccc([C@@H]2CNC(=O)C2)cc1OC1CCCC1	i	6%	1e-09&2.5e-09	i	-1.1%
OCC(O)CN1CCN(c2ccccc2)CC1 (stereo unspecified)	i	.	1.1e-08	i	-0.2%
O=C(O)[C@@H]1[C@@H]2C[C@H]3c4[nH]c5ccccc5c4CCN3C[C@@H]2CC[C@@H]1O	i	?	7.8e-09&4.6e-08	i	10%[25.7 µM]
Nc1cc(=O)[nH]c(N)n1	i	12%&3%	3.3e-08	i	-2.3%
CN(C)CCOC(=O)C(c1ccccc1)C1(O)CCCC1 (stereo unspecified)	i	.	1e-09	i	-3.7%
C[C@H]1C[C@@H]2[C@H]3CCC4=CC(=O)C=C[C@@]4(C)[C@@]3(Cl)[C@@H](O)C[C@]2(C)[C@]1(OC(=O)c1ccco1)C(=O)CCl	i	-11%[25.6 µM]	3.2e-09	i	1.6%[25.7 µM]
CC(=O)O[C@@]12CO[C@@H]1C[C@H](O)[C@@]1(C)C(=O)[C@H](O)C3=C(C)[C@@H](OC(=O)[C@H](O)[C@@H](NC(=O)OC(C)(C)C)c4ccccc4)C[C@](O)([C@@H](OC(=O)c4ccccc4)[C@H]21)C3(C)C	i	.	4.1e-08	i	.
C[C@@H]1[C@H](C)CC[C@@]2(C(=O)O[C@H]3O[C@@H](CO[C@H]4O[C@@H](CO)[C@@H](O[C@H]5O[C@@H](C)[C@@H](O)[C@@H](O)[C@@H]5O)[C@@H](O)[C@@H]4O)[C@@H](O)[C@@H](O)[C@@H]3O)CC[C@]3(C)C(=CC[C@H]4[C@@]5(C)C[C@@H](O)[C@@H](O)[C@](C)(CO)[C@@H]5CC[C@@]43C)[C@@H]12	i	.	2.2e-08	i	-1.1%[25.7 µM]
CN1CCC(=C2c3ccccc3CC(=O)c3sccc32)CC1	i	?	1e-09&2.5e-09&2.3e-08	i	-1.5%
CN1CCN(c2c(F)cc3c(=O)c(C(=O)O)cn4c3c2SCC4)CC1	i	-8%	1.7e-09	i	-0.5%
Cc1oncc1C(=O)Nc1ccc(C(F)(F)F)cc1	i	-18%	3e-08&1e-09&2.2e-08	i	1.8%
NC(=O)c1ccc(-c2nc(-c3ccc4c(c3)OCO4)c(-c3ccccn3)[nH]2)cc1	.	-2%	.	.	0.4%
CN1CCN(CCCN2c3ccccc3Sc3ccc(S(=O)(=O)N(C)C)cc32)CC1	i	14%[25.6 µM]	4.1e-08	i	0.8%[25.7 µM]
O=C(NCCN1CCOCC1)c1ccc(Cl)cc1	i	2%	1.1e-08	i	-1.2%
O=C(O)CCCCCCCC(=O)O	i	?	1e-09	i	-1.6%&0.4%

Quoted at random: 6 entries already listed.
SMILES	A488 autofl	TSHR agonist	A647 autofl	Resorufin fluor	AID923
NC(=O)c1ccc(-c2nc(-c3ccc4c(c3)OCO4)c(-c3ccccn3)[nH]2)cc1	.	-2%	.	.	0.4%
CN1CCN(CCCN2c3ccccc3Sc3ccc(S(=O)(=O)N(C)C)cc32)CC1	i	14%[25.6 µM]	4.1e-08	i	0.8%[25.7 µM]
C[C@H]1C[C@@H]2[C@H]3CCC4=CC(=O)C=C[C@@]4(C)[C@@]3(Cl)[C@@H](O)C[C@]2(C)[C@]1(OC(=O)c1ccco1)C(=O)CCl	i	-11%[25.6 µM]	3.2e-09	i	1.6%[25.7 µM]
CN1CCC(=C2c3ccccc3CC(=O)c3sccc32)CC1	i	?	1e-09&2.5e-09&2.3e-08	i	-1.5%
Cc1oncc1C(=O)Nc1ccc(C(F)(F)F)cc1	i	-18%	3e-08&1e-09&2.2e-08	i	1.8%
O=C(O)CCCCCCCC(=O)O	i	?	1e-09	i	-1.6%&0.4%

Quoted from the listing.
OCC(O)CN1CCN(c2ccccc2)CC1 (stereo unspecified) @ AID923: -0.2%
C[C@H]1C[C@@H]2[C@H]3CCC4=CC(=O)C=C[C@@]4(C)[C@@]3(Cl)[C@@H](O)C[C@]2(C)[C@]1(OC(=O)c1ccco1)C(=O)CCl @ A647 autofl: 3.2e-09
CN(C)CCOC(=O)C(c1ccccc1)C1(O)CCCC1 (stereo unspecified) @ A647 autofl: 1e-09
COc1ccc([C@@H]2CNC(=O)C2)cc1OC1CCCC1 @ AID923: -1.1%

Rewritten field by field: two of the compounds above.
> C[C@@H]1[C@H](C)CC[C@@]2(C(=O)O[C@H]3O[C@@H](CO[C@H]4O[C@@H](CO)[C@@H](O[C@H]5O[C@@H](C)[C@@H](O)[C@@H](O)[C@@H]5O)[C@@H](O)[C@@H]4O)[C@@H](O)[C@@H](O)[C@@H]3O)CC[C@]3(C)C(=CC[C@H]4[C@@]5(C)C[C@@H](O)[C@@H](O)[C@](C)(CO)[C@@H]5CC[C@@]43C)[C@@H]12
  A488 autofl: i
  TSHR agonist: .
  A647 autofl: 2.2e-08
  Resorufin fluor: i
  AID923: -1.1%[25.7 µM]
> CN1CCC(=C2c3ccccc3CC(=O)c3sccc32)CC1
  A488 autofl: i
  TSHR agonist: ?
  A647 autofl: 1e-09&2.5e-09&2.3e-08
  Resorufin fluor: i
  AID923: -1.5%

(more compounds)
SMILES	A488 autofl	TSHR agonist	A647 autofl	Resorufin fluor	AID923
CN(C)CCO[C@](C)(c1ccccc1)c1ccccn1	i	-2%[25.6 µM]	2.9e-09&7.5e-09	i	-1.3%[25.7 µM]
CN(C)CCC[C@@]1(c2ccc(F)cc2)OCc2cc(C#N)ccc21	i	10%&-2%	2e-08	i	-1.4%&-1.3%&-0.9%
CCCCOC(=O)c1ccc(N)cc1	i	?	6e-09	i	4.7%
COc1c(O)cc2c(c1O)[C@@H]1O[C@@H](CO)[C@@H](O)[C@@H](O)[C@@H]1OC2=O	i	?	5.6e-09	i	-1.3%[25.7 µM]
COc1cc(C(=O)NCCCCCC(=O)O)cc(OC)c1OC	i	0%	2.4e-08	i	-0.6%
COc1cc(C)nc(-n2nc(C)cc2OC)n1	i	-3%[25.6 µM]	1e-09	i	-0.5%[25.7 µM]
CC(C)[C@@H]1C(=O)N(S(C)(=O)=O)[C@H]2CCN(C(=O)/C=C\CN3CCCCC3)[C@@H]12	.	5%	.	.	1.2%
CCn1cc(C(=O)O)c(=O)c2cc(F)c(N3CCN[C@@H](C)C3)c(F)c21	i	-12%[25.6 µM]	3.2e-08&1.6e-08	i	1.0%[25.7 µM]
CCOC(=O)Nc1ccc2c(c1)N(C(=O)CCN1CCOCC1)c1ccccc1S2	i	11%	3.9e-08&7.2e-09	i	1.4%
C[C@@H](Cc1cccc(C(F)(F)F)c1)NCCOC(=O)c1ccccc1	i	8%[25.6 µM]	6.8e-09	i	-1.1%[25.7 µM]
CC1(C)Oc2ccc(C#N)cc2[C@H](N2CCCC2=O)[C@H]1O	.	-4%&-3%	.	.	0.2%&-0.6%
C[C@@]12CCC(=O)C=C1CC[C@H]1[C@H]3CC[C@](O)(C(=O)CO)[C@]3(C)CC[C@@H]12	i	.	5.5e-08	i	.
CCCc1cc(C(N)=S)ccn1	i	?	1.7e-09	i	1.1%&0.1%
CCN(CCCCOC(=O)c1ccc(OC)c(OC)c1)[C@@H](C)Cc1ccc(OC)cc1	i	.	5.3e-08	i	-3.3%[25.7 µM]
CC(C)(C(=O)c1cccnc1)c1cccnc1	i	-10%[25.6 µM]	1e-09	i	2.4%[25.7 µM]
O=C1CCc2cc(OCCCCc3nnnn3C3CCCCC3)ccc2N1	i	25µM*	1e-09&4.1e-08	i	-4.1%&-2.9%
CCN(CC)CCOC(=O)C(c1ccccc1)c1ccccc1	i	-9%[25.6 µM]	1.5e-08&5.7e-09	i	0.3%

This is a subset; count on the stated rates, not on these rows.
